Compound activity deposited in PubChem BioAssay by several laboratories.
RecA intein inh – inhibitors of M. tuberculosis RecA intein splicing; P9WHJ3; cell-free RecA intein splicing, fluorescence; inhibition, %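 (about 9 µM by stock and volumes)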; 290,000 compounds, 0.75% hits; in the data active means inhibition above about 30%; inconclusive means no clear call, values can overlap the other calls;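 further: 0% = vehicle wells and 100% = reference inhibitor control wells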
Target sequence (P9WHJ3 whole entry, looked up): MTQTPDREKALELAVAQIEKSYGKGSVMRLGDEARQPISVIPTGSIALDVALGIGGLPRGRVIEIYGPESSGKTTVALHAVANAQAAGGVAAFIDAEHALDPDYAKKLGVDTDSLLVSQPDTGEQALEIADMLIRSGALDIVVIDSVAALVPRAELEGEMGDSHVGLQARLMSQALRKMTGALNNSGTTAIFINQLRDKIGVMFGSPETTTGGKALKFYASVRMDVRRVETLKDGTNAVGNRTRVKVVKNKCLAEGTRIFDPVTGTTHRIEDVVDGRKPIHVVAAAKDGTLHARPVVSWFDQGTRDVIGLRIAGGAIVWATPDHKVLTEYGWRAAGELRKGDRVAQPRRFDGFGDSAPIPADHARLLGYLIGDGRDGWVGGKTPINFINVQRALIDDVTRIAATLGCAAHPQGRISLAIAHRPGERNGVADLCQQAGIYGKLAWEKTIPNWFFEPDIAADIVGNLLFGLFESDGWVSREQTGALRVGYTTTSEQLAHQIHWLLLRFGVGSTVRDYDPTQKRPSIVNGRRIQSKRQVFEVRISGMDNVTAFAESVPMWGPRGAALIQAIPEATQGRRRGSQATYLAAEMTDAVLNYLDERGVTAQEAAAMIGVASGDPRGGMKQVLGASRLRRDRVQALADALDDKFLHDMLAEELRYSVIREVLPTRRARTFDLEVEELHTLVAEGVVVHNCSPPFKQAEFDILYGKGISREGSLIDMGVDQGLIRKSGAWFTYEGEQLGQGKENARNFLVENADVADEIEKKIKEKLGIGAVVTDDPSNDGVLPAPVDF
Mtb bLac sens – beta-lactam sensitization of Mtb H37Rv; 330,000 compounds, 0.27% hits; M. tuberculosis H37Rv growth with meropenem, percent inhibition; hits of this screen are not shown here; inhibition, % at 25 µM;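 active means about 74% or more and at least 40 points above the plate without the antibiotic, then above 30% in a dose series; inconclusive means first-round hits that could not be retested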;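 further: growth measured after seven days incubation then overnight dye step; 0% = bacteria only wells and 100% = bacteria with antibiotic; twin plates without the antibiotic show which effects depend on it; some results filed as inactive read as strong as hits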
YopH PTP inh – blocks Yersinia enterocolitica YopH tyrosine phosphatase; inhibition, %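 (about 10 µM by stock and volumes)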; fluorescence Ex485/Em525; 140,000 compounds, 0.16% hits;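 active means inhibition of 50% or more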;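 further: controls were vehicle for no effect and minimum signal wells for full effect; inactives centre near -20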
Mtb growth – M. tuberculosis H37Rv growth inhibitors, H37Rv strain (AID 1626). M. tuberculosis H37Rv growth inhibition; higher % means a stronger effect. 220,000 compounds, 0.95% hits. inhibition, % at 10 µM; hits with a dose series show IC50 in µM;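 active means confirmed in a dose series; inconclusive means inhibition above 80% but not taken into the dose series; inactive means below 80% or under 30% at every dose of the series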;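 further: bacteria incubated seven days before Alamar blue readout; 0% = bacteria only wells and 100% = bacteria with antibiotic wells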
Arbovirus anti – arbovirus infection inhibition; arbovirus infection cell-based antiviral screen; inhibition, % at 10 µM; 200,000 compounds, 0.37% hits; AID 1251;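 active means inhibition from about 30%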;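 further: bluetongue infection of BSR cells; cell survival read as ATP light after 72 h; 0% = infected wells without compound and 100% = uninfected wells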
Arbovirus anti repeat – also measured in Arbovirus anti; calls as there; inhibition, %; measured here: 10K subset replicate screen; many hits read low in the repeat;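 first of two repeat runs on a subset; 0% = infected and 100% = uninfected wells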
Active calls of the source: *; ? = inconclusive; nt = no result given; & = joins results of further samples. Only part of the results is shown; the hit share may differ from the screen's.

Start of the data: the first two records, to show the layout:
SMILES	RecA intein inh	Mtb bLac sens	YopH PTP inh	Mtb growth	Arbovirus anti	others
CC12CN3CC(C)(CN(C1)C3c1ccc3c(c1)OCO3)C2=O (centres undefined)	-0.9	nt	9	-9%	-1
Cc1cccc(N(C(=O)CNC(=O)c2cccs2)C(C(=O)NC2CCCC2)c2ccncc2)c1 (centres undefined)	-0.5	1	nt	nt	nt

The list itself, from the first entry:
SMILES	RecA intein inh	Mtb bLac sens	YopH PTP inh	Mtb growth	Arbovirus anti	others
CC12CN3CC(C)(CN(C1)C3c1ccc3c(c1)OCO3)C2=O (centres undefined)	-0.9	nt	9	-9%	-1
Cc1cccc(N(C(=O)CNC(=O)c2cccs2)C(C(=O)NC2CCCC2)c2ccncc2)c1 (centres undefined)	-0.5	1	nt	nt	nt
CCCOc1cccc(C2/C(=C(/O)c3ccc4c(c3)CC(C)O4)C(=O)C(=O)N2CCN2CCOCC2)c1 (centres undefined)	-2.7	-9	nt	nt	nt
Cc1ccc(-c2nnc(SCC(=O)N/N=C/c3ccccc3C(=O)O)n2-c2ccccc2)cc1	0.5	0	nt	37%	11
CC(NC(=O)C1CCN(S(=O)(=O)N2CCCCCC2)CC1)c1ccccc1 (centres undefined)	-0.3	-11	-45	-4%	-1
N#Cc1c(N)n(-c2cccc(C(=O)O)c2)c2nc3ccccc3nc12	-213	2	nt	-23%	nt
O=C(Cn1ncc2c3ccccc3n(Cc3ccccc3)c2c1=O)NCc1ccco1	-0.3	-12	nt	3%	nt
CC(=O)Nc1ccc(NC(=O)C(C)OC(=O)CCCN=C2NS(=O)(=O)c3ccccc32)cc1 (centres undefined)	-2.0	-5	nt	nt	nt
CCc1nnc(NC(=O)CCC(=O)N2CCN(Cc3cc(Cl)ccc3OC)CC2)s1	0.2	0	-37	-2%	-2
c1ccc2c(c1)CSc1sccc1C2=C1CCNCC1	4.1	1	-33	7%	-34
Cc1cccc(NC(=S)Nc2ccccn2)c1C	-1.0	-5	-2	11%	4
Cc1occc1C(=O)N1CCN(C(=O)C2CCCO2)CC1 (centres undefined)	-0.2	-10	-43	1%	4
Cc1cccc(NC(=O)Cn2c(=O)n(C)c3ccccc32)c1	4.6	-8	-3	-12%	0
O=C(CN(Cc1cccs1)C(=O)CCC(=O)Nc1nccs1)NCc1ccccc1	-1.2	6	-21	-13%	-1
CC(C)NC(=O)CSc1nncn1-c1ccccc1	-1.5	36	-33	3%	1
O=S(=O)(NCC1CC1)c1cc(Cl)cc(Cl)c1	-2.1	-2	nt	nt	nt
Cc1cc(OCC(=O)NCc2cccnc2)c2c(C)cc(=O)oc2c1	-3.2	3	nt	nt	nt
COc1ccc(/C=N/n2c(SC)nnc(C(C)(C)C)c2=O)cc1OC	1.5	5	-4	9%	3
CC(=O)N1CCC(N(CCCOC(C)C)C(=O)Nc2ccc(C)c(C)c2)CC1	-0.2	2	-119	-2%	7
CN(C)CCCN1C(=O)c2oc3ccc(F)cc3c(=O)c2C1c1cccnc1 (centres undefined)	-0.9	1	-15	0%	-1	Arbovirus anti repeat=6
CC1=CC(C)(C)Nc2ccccc21	3.6	-3&-7	-32	-1%	-1
CCOC(=O)c1cc2c(=O)n3ccccc3nc2n(C(C)C)c1=NC(=O)c1c(-c2c(F)cccc2Cl)noc1C	-71	5	-5	12%	-30
COc1ccc(C(=O)NC(=S)NNC(=O)COc2ccccc2)cc1	12	16	nt	78%	-24
COc1cccc(C2C3=C(N=c4s/c(=C\c5ccc(OCC(=O)O)cc5)c(=O)n42)c2ccccc2CC3)c1 (centres undefined)	6.8	36	nt	4%	nt
Cc1ccccc1NC1=C(Cl)C(=O)OC1OC(=O)c1ccccc1C (centres undefined)	14	2	nt	-1%	-2
O=C(CCNS(=O)(=O)c1ccccc1)N1CCCCCC1	-0.6	-6	nt	nt	nt
CC(C)N(Cc1ccccc1)C(=O)c1cccs1	0.7	-4	nt	nt	nt
O=C(CSc1cccc2cccc(Cl)c12)OCC(=O)N1CCN(C(=O)c2ccco2)CC1	nt	-8	-16	nt	10
Cc1nc(N2CCN(S(=O)(=O)c3ccccc3)CC2)c2cc(-c3ccccc3)sc2n1	1.2	-5	-6	1%	-2
CC(/C=C1\SC(=S)N(CCC(=O)Nc2nc(C)cs2)C1=O)=C\c1ccccc1	1.1	8	nt	1%	nt
COc1cc(CN2CCC(C(=O)N3CCN(c4ccccc4F)CC3)CC2)cc(OC)c1O	-8.1	-2	-1	-11%	1
CCOc1cc(C2C(C#N)=C(N)OC3CCCC(=O)C32)ccc1OCCN1CCOCC1 (centres undefined)	1.7	-6	-28	1%	7
CCCc1cc(=O)oc2c3c(cc(OCC(=O)NCCCn4ccnc4)c12)OC(C)(C)CC3	0.4	-3	nt	nt	nt
CCOC(=O)Cc1csc(N/N=C\c2ccc(N(C)C)cc2)n1	-4.1	?	nt	nt	nt
CC(C)(C)C(=O)Nc1c(Cl)cccc1OC(F)(F)F	-1.0	-4	nt	2%	nt
COc1cccc(Cn2cccc(NC(=O)Nc3ccc(C#N)cc3)c2=O)c1	-1.0	?	1	-4%	3
Cc1c(C(=O)OC(C)C)sc2nc[nH]c(=O)c12	1.4	7	-3	-6%	1
Cc1ccc(C(=O)O/N=C(/c2nonc2N)N(C)C)cc1	-1.0	3	-17	-9%	5
CCOC(=O)c1cc(CC)sc1NC(=O)c1cc(OC)c(OC)c(OC)c1	2.4	37	8	8%	4
COc1ccc(N(CC(=O)NCCSCc2ccco2)S(=O)(=O)c2ccccc2)cc1	0.6	-19	nt	1%	-10
C/C(=N\NC(=S)NCCc1ccccc1)c1ccc(O)cc1O	2.7	2	nt	nt	nt
O=S(=O)(NCCSc1nnc(-c2ccco2)n1-c1ccccc1)c1ccccc1	-1.9	4	-8	5%	7	Arbovirus anti repeat=-3
O=C(O)c1ccc(CN(c2ccccc2)S(=O)(=O)c2ccccc2)cc1	0.4	-4	nt	nt	nt
c1ccc(Nc2nc(CSc3ncn[nH]3)cs2)cc1	-0.2	-1	nt	-3%	19
CC(C)Oc1cccc(C(=O)C2CCCN(S(C)(=O)=O)C2)c1 (centres undefined)	3.5	0	nt	-9%	0
CCN1CCCC1CNC(=O)C1c2cc(OC)c(OC)cc2C(=O)N(C)C1c1cccnc1 (centres undefined)	3.5	-7	-4	0%	5
CCN1CCN(c2ccc(NC(=O)c3ccco3)cc2)CC1	-3.6	0	nt	nt	nt
Cn1c(SCC(=O)NC2CCCCCC2)nnc1-c1ccco1	-2.3	-7	nt	nt	nt
COC(=O)c1cc(Cl)cc(Cl)c1OS(=O)(=O)N(C)C	-1.0	8	nt	2%	3
CCOc1ccc(N2CC(C(=O)N3CCCCCC3)CC2=O)cc1 (centres undefined)	-0.6	-7	nt	nt	nt
O=C(CS(=O)(=O)c1ccccc1)c1cc2cc(F)ccc2oc1=O	0.5	2	nt	nt	nt
CCOc1ccccc1NC(=O)COc1coc(CN2CCc3ccccc3C2)cc1=O	2.7	15	nt	nt	nt
COc1ccc(NC(=O)c2cccc(OS(=O)(=O)N(C)C)c2)cc1	6.6	-11	nt	2%	-2
O=c1[nH]c2ccc(Cl)cc2c(-c2ccccc2)c1N1CCN(c2ccccn2)CC1	-6.7	7	-17	6%	-1
c1ccc2[nH]c(C3CC3)nc2c1	1.9	0	nt	-7%	5
Cc1c(C)c2c(OCC(=O)NCc3ccco3)cc3c(c2oc1=O)CCC(C)(C)O3	-2.5	2	nt	nt	nt
CCOc1ccc(N=NC2C(=O)N(C(N)=S)N=C2C)cc1 (centres undefined)	2.9	86	nt	nt	nt
COc1cccc(NC(=O)CCC2CCN(C(=O)c3ccc(C(C)=O)s3)CC2)c1	-1.6	3	nt	nt	nt
Cc1cc(OC(=O)c2c(Cl)cc(Cl)cc2Cl)nc(C)n1	5.2	4	-15	-5%	-1
CCN1CCN(Cc2ccc(NC(=O)c3ccc(C)c(NC(=O)C4=NN(c5ccccc5)C(=O)C4)c3)cc2C(F)(F)F)CC1	-1.8	10	nt	-8%	nt

Some of these compounds in order of molecular weight, lowest first:
SMILES	RecA intein inh	Mtb bLac sens	YopH PTP inh	Mtb growth	Arbovirus anti	others
COC(=O)c1cc(Cl)cc(Cl)c1OS(=O)(=O)N(C)C	-1.0	8	nt	2%	3
C/C(=N\NC(=S)NCCc1ccccc1)c1ccc(O)cc1O	2.7	2	nt	nt	nt
CCN1CCCC1CNC(=O)C1c2cc(OC)c(OC)cc2C(=O)N(C)C1c1cccnc1 (centres undefined)	3.5	-7	-4	0%	5

Remaining list, next part.
SMILES	RecA intein inh	Mtb bLac sens	YopH PTP inh	Mtb growth	Arbovirus anti	others
NC1=NC(=O)CC(C(=O)NCc2ccccc2)S1 (centres undefined)	0.4	-4	2	-6%	1
COc1ccc(C)cc1S(=O)(=O)NCCc1ccccc1	2.8	0	-16	-7%	7
Cc1ccccc1OCCNc1cc(N2CCCCC2)ccc1[N+](=O)[O-]	13	-5	1	-2%	14
CCOC(=O)c1ccc(NC(=O)Cc2coc3cc4c(cc23)CCC4)cc1	-1.0	94	-35	6.4µM*	-15
COc1ccc(CCNS(=O)(=O)c2cn(C)nc2C)cc1	1.0	-1	nt	nt	nt
O=S(=O)(c1cccc(S(=O)(=O)N2CCOCC2)c1)N1CCCCC1	8.3	?	-24	-6%	3
COc1ccc(NN=Nc2nc3c([nH]2)c(=O)n(C)c(=O)n3C)cc1	nt	7	nt	0%	nt
CC1CCN(C(=O)c2ccc([N+](=O)[O-])o2)CC1	-4.5	100	nt	nt	nt
CCCOc1ccc(NCC(=O)Nc2ccc(C)cc2C)cc1	6.9	99	-14	<0.39µM*	-13
CCOc1ccccc1N(CC(=O)Nc1cc(OC)ccc1OC)S(C)(=O)=O	-0.6	-8	-22	-7%	-8
CCCN=Cc1sc2ccc(OCC)cc2c1O	0.5	12	-40	-1%	-8
Cc1ccccc1C(=O)c1cccn1CC(=O)N1CCCCC1	1.1	0	nt	nt	nt
CN(CC(=O)N1CCN(c2ccccn2)CC1)S(=O)(=O)c1ccc(Cl)cc1	-2.0	8	nt	nt	nt
CCC(C)[C@@H](C(=O)N1CCNCC1)n1cc(CCCN=C(N)N)nn1 (some centres undefined)	-0.6	-9	nt	-10%	5
Cc1ccc(N/N=C/c2ccc3c(c2)OCCO3)cc1Cl	-0.6	95	-2	64%	-4
O=C(CCn1c(=O)[nH]c2ccsc2c1=O)NCCc1ccc(Cl)cc1	-2.9	-4	10	-2%	-5
O=C(CCSc1nnc(-c2ccncc2)o1)Nc1cccc2ccccc12	1.9	-3	-8	-6%	5
O=C(COC(=O)c1ncc(Cl)c(Cl)c1Cl)NC(=O)NCc1ccccc1	1.2	10	nt	0%	6
CC(C)CC(C(=O)NC1CCCCC1)N(Cc1ccccc1)C(=O)c1snc(C(N)=O)c1N (centres undefined)	-1.1	2	nt	nt	nt
Cc1c(C(=O)OCC2CCCO2)[nH]c2c1C(=O)CC(c1ccco1)C2 (centres undefined)	4.6	7	-49	3%	-18
CC(=O)c1c(C(C)=O)c(C)n(-c2ccc(C)c(NC(=O)c3ccccc3Cl)c2)c1C	4.3	3	-19	-2%	2
COC(=O)c1ccccc1S(=O)(=O)N1CCC(C(=O)OCc2ccc([N+](=O)[O-])cc2)CC1	1.5	-9	nt	nt	nt
O=C(/C=C/c1cccc([N+](=O)[O-])c1)NCCSCc1ccc(Cl)cc1Cl	nt	7	-8	8%	-11
C=CCOc1ccccc1C(=O)/C=C1/C(=O)Nc2ccccc21	0.1	79	nt	nt	nt
OCCN1CCN(c2ncnc3sc(-c4ccccc4)cc23)CC1	1.7	-4	nt	0%	-14
CCn1c(CNC(=O)Cc2ccc(OC)cc2)nnc1SCC(=O)NC1CCCCC1	6.9	-20	-1	-4%	8
COc1ccc(CNC(=O)CCCOc2cc(=O)n(C)c3ccccc23)cc1	1.8	6	0	-2%	2
COc1ccc2c(c1)c(C(O)CN1CCC3(CC1)OCCO3)c(C)n2C (centres undefined)	-1.2	nt	-31	-6%	6
CN(C)c1ccc(C(CNS(=O)(=O)c2ccc(F)c(F)c2)c2c[nH]c3ccccc23)cc1 (centres undefined)	0.7	-2	-21	11%	-35
COc1ccccc1NC(=O)CSc1nnc(CCC(=O)Nc2ccccc2F)n1C	0.2	-2	nt	-4%	nt
Cc1cc(C)n(CCC(=O)N2CCCC(N3CCN(c4cccc(Cl)c4)CC3)C2)n1 (centres undefined)	3.2	-25	nt	nt	nt
CSc1oc(-c2ccc(F)cc2)nc1S(=O)(=O)c1ccc(F)cc1	-4.6	6	-3	7%	-7	Arbovirus anti repeat=-5
COc1ccc(-n2c(SCC(=O)Nc3ccc4c(c3)OCO4)nnc2C(C)N2CCCCC2)cc1 (centres undefined)	0.5	-8	-32	-4%	-11
O=C(CN(Cc1cccs1)C(=O)CN1C(=O)COc2ccccc21)NCc1ccco1	0.0	-6	-44	-1%	-7
O=C(/C=C/c1cc2c(cc1Br)OCO2)NCc1ccc(F)cc1	-1.1	-7	-11	-11%	0
